Source: PubChem BioAssay
Mtb bLac sens = beta-lactam sensitization of Mtb H37Rv; M. tuberculosis H37Rv growth with meropenem, percent inhibition; hits of this screen are not shown here; inhibition, % at 25 µM; 0.27% of 330,000 active;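 active means about 74% or more and at least 40 points above the plate without the antibiotic, then above 30% in a dose series; inconclusive means first-round hits that could not be retested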;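 further: growth measured after seven days incubation then overnight dye step; 0% = bacteria only wells and 100% = bacteria with antibiotic; twin plates without the antibiotic show which effects depend on it; some results filed as inactive read as strong as hits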
Mtb growth = M. tuberculosis H37Rv growth inhibitors, H37Rv strain (AID 1626) | M. tuberculosis H37Rv growth inhibition; higher % means a stronger effect | inhibition, % at 10 µM; hits with a dose series show IC50 in µM | 0.95% of 220,000 active;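 active means confirmed in a dose series; inconclusive means inhibition above 80% but not taken into the dose series; inactive means below 80% or under 30% at every dose of the series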;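 further: bacteria incubated seven days before Alamar blue readout; 0% = bacteria only wells and 100% = bacteria with antibiotic wells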
YopH PTP inh = inhibitors of Yersinia enterocolitica YopH tyrosine phosphatase. inhibition, %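 (about 10 µM by stock and volumes)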. AID 898. fluorescence Ex485/Em525. 0.16% of 140,000 active;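 active means inhibition of 50% or more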;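 further: controls were vehicle for no effect and minimum signal wells for full effect; inactives centre near -20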
Arbovirus inh = antivirals against arbovirus infection; arbovirus infection cell-based antiviral screen; inhibition, % at 10 µM; 0.37% of 200,000 active; AID 1251;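 active means inhibition from about 30%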;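 further: bluetongue infection of BSR cells; cell survival read as ATP light after 72 h; 0% = infected wells without compound and 100% = uninfected wells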
RecA splice inh = inhibitors of M. tuberculosis RecA intein splicing; P9WHJ3; cell-free RecA intein splicing, fluorescence; inhibition, %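 (about 9 µM by stock and volumes)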; 0.75% of 290,000 active; AID 2221; in the data active means inhibition above about 30%; inconclusive means no clear call, values can overlap the other calls;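 further: 0% = vehicle wells and 100% = reference inhibitor control wells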
Target sequence (P9WHJ3 whole entry, looked up, canonical isoform): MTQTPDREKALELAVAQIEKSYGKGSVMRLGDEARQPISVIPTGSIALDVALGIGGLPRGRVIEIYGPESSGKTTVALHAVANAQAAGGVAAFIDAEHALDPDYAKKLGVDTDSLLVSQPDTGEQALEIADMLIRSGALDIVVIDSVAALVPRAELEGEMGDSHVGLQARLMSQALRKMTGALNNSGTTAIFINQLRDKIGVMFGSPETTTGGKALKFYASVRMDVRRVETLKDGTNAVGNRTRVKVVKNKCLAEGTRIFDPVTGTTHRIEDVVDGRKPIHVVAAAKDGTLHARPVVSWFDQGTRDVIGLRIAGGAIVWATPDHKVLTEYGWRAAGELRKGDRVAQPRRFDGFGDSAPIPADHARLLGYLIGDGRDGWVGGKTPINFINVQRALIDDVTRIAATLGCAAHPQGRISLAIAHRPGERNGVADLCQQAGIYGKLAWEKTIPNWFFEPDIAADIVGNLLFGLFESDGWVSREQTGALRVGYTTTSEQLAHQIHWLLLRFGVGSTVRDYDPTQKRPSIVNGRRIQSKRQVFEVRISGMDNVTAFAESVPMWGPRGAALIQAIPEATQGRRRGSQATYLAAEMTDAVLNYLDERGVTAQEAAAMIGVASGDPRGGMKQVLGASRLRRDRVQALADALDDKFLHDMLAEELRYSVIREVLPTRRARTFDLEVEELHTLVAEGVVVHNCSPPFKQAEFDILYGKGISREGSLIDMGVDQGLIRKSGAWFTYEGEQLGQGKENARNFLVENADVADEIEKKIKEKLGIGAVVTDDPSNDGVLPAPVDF
Arbovirus inh repeat = recorded beside Arbovirus inh, whose call it bears; inhibition, %; measured here: 10K subset replicate screen; many hits read low in the repeat;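 first of two repeat runs on a subset; 0% = infected and 100% = uninfected wells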
Active calls of the source: *; ? = inconclusive; . = not tested or not shown. This is a subset; the hit share may differ from the screen's.

SMILES	Mtb bLac sens	Mtb growth	YopH PTP inh	Arbovirus inh	RecA splice inh	others
CN1CC(=O)N(CC(=O)Nc2ccc3c(c2)CCC3)C1=O	7.6	-3.7%	.	-0.5	0.2
O=C(NCCN1CCCC1)c1cccc(Cl)c1	2.0	-3.6%	.	-1.8	0.7
Cc1nc2cc(NS(=O)(=O)c3cccc(F)c3)ccc2s1	-0.4	-6.1%	.	4.0	1.1
CCOC(=O)c1cnc(N2CCOCC2)[nH]c1=O	7.1	1.1%	-45.7	-0.8	0.7
O=C1CC(Nc2ccccc2)C(=O)N1Cc1ccccc1 (configuration not stated)	-9.3	6.0%	-2.1	0.2	2.7
COc1ccc(NC(=O)CNS(=O)(=O)c2ccc(Cl)cc2)cc1OC	4.3	5.5%	-20.7	3.7	2.0
Cc1oc(CC(C)C)cc1C(N)=O	-8.5	-5.4%	.	2.4	0.3
CC(C)n1c(SCC(=O)NC2CC2)nnc1-c1ccco1	-0.6	.	.	.	-2.6
COC(=O)c1ccc(CN2C(=O)c3ccccc3C2=O)o1	4.0	.	.	.	0.1
Cc1ccccc1C(=O)NCC(C)NC(=O)c1ccccc1C (configuration not stated)	-1.1	.	.	.	0.4
CCCC(=O)Nc1ccc(C(=O)N/N=C/c2ccc([N+](=O)[O-])o2)cc1	98.8	?	-5.4	-28.2	19.8
Cc1cc(C)c(NC(=O)C2CCN(C(=O)c3ccco3)CC2)c(C)c1	1.8	.	.	.	-0.6
Cc1ccc(-c2nc(SCC(=O)Nc3cc(C)on3)c3c(=O)n(C)c(=O)n(C)c3n2)cc1	-16.9	.	.	.	-0.6
CCCCn1c(NS(=O)(=O)c2ccc(C)cc2)c(C(=O)OCC)c2nc3ccccc3nc21	7.0	2.4%	-16.8	7.7	-139.0
O=C(C1CCCN(c2ncnc3c2nc2n3CCCCC2)C1)N1CCCCC1 (configuration not stated)	-2.9	.	.	.	-1.8
CCOC(=O)c1ccc(NC(=O)c2c(N)n(C)c(=O)n(C)c2=O)cc1	-1.7	-9.6%	.	.	-2.3
COc1cccc(CC(NC(C)=O)C(=O)NC2CCN(c3nnnn3-c3ccccc3)CC2)c1 (configuration not stated)	-6.1	-5.7%	-7.7	7.2	-1.5
O=C(Nc1ccc(Cl)cc1C(=O)N1CCCCC1)c1ccco1	0.1	.	.	.	-0.4
N/C(=N\OC(=O)c1csnn1)c1ccc(C(F)(F)F)cc1	1.4	-8.2%	.	.	0.0
O=C(c1cc2ccccc2s1)N1CCOCC1	-14.9	-1.1%	.	.	-3.9
Cc1[nH]c2ccc(F)cc2c1CCN(Cc1cccnc1)C(=S)Nc1ccccc1	40.0	-0.6%	.	2.8	9.1
N#C/C(C(=O)N1CCOCC1)=C1/SC(Cc2ccccc2Cl)C(=O)N1c1ccccc1 (configuration not stated)	1.4	-0.4%	-39.8	2.8	-0.3
COCCN1C(=O)C(=O)/C(=C(/O)c2ccc(C)cc2)C1c1ccccn1 (configuration not stated)	1.5	-7.6%	.	-2.5	-3.3
CC(C)(C)OC(=O)CNC(=O)c1[nH]cnc1C(=O)N[C@@H](Cc1ccccc1)C(=O)OCc1ccccc1	5.8	.	.	.	4.1
COc1cccc(N2CCN(CC(=O)Nc3nnc(-c4ccccc4)s3)CC2)c1	2.7	1.0%	-25.7	17.3	6.2

The list goes on; it opens with the 6 that closed the last part.
SMILES	Mtb bLac sens	Mtb growth	YopH PTP inh	Arbovirus inh	RecA splice inh	others
O=C(c1cc2ccccc2s1)N1CCOCC1	-14.9	-1.1%	.	.	-3.9
Cc1[nH]c2ccc(F)cc2c1CCN(Cc1cccnc1)C(=S)Nc1ccccc1	40.0	-0.6%	.	2.8	9.1
N#C/C(C(=O)N1CCOCC1)=C1/SC(Cc2ccccc2Cl)C(=O)N1c1ccccc1 (configuration not stated)	1.4	-0.4%	-39.8	2.8	-0.3
COCCN1C(=O)C(=O)/C(=C(/O)c2ccc(C)cc2)C1c1ccccn1 (configuration not stated)	1.5	-7.6%	.	-2.5	-3.3
CC(C)(C)OC(=O)CNC(=O)c1[nH]cnc1C(=O)N[C@@H](Cc1ccccc1)C(=O)OCc1ccccc1	5.8	.	.	.	4.1
COc1cccc(N2CCN(CC(=O)Nc3nnc(-c4ccccc4)s3)CC2)c1	2.7	1.0%	-25.7	17.3	6.2
COc1ccc(N(CC(O)Cn2nnc3ccccc32)S(=O)(=O)c2ccc(C)cc2)cc1 (configuration not stated)	9.4	-4.1%	-26.1	-7.6	6.7
COCCN(C(=O)c1csnn1)C(C(=O)NC1CCCCC1)c1ccc(C)cc1 (configuration not stated)	-6.0	.	.	.	-1.2
CCOc1ccccc1-n1nnnc1SCC(=O)Nc1cc(C)on1	15.4	-6.5%	1.1	-0.3	-0.8
C=CCn1c(SCc2ccc(C(=O)Nc3nccs3)cc2)nnc1-c1ccc(C)c(Cl)c1	.	6.82µM*	-19.0	-24.3	9.1
C/C(=N\NC(=O)NC1CCCCC1)c1ccc(OC(F)F)cc1OC(F)F	5.0	6.0%	.	-19.5	8.9
CC1CCc2c(sc3ncnc(NCc4cccnc4)c23)C1 (configuration not stated)	49.3	0.1%	.	0.3	-0.3
CCO[C@H]1OC(C(=O)Nc2ccccc2)=C[C@@H](C2CC2)[C@@H]1CCCO	-4.9	-1.8%	.	-2.4	-0.6
CC(=O)CCc1oc2ccc(C)cc2c1-c1ccc(C)o1	8.8	12.4%	.	-10.6	7.3
CCOc1ccc(OCC)c(NC(=O)C2CCCN2S(=O)(=O)c2cccc3cccnc23)c1 (configuration not stated)	-0.7	-7.9%	-21.6	9.6	.	Arbovirus inh repeat=-1.3
CCN(CC)c1ccc(/C=N/NC(=O)c2ccc(Br)o2)cc1	3.8	-0.2%	-11.1	-21.6	1.2
COc1cccc(-c2nnc3sc(-c4ccco4)nn23)c1	1.8	-5.2%	-27.3	-6.6	-2.0
Cc1cc2nsnc2c(S(=O)(=O)NCC(=O)O)c1C	0.0	-4.0%	-33.3	8.0	0.1	Arbovirus inh repeat=1.0
CCCCCC[n+]1c(-c2ccc(Cl)cc2Cl)csc1Nc1ccccc1	0.4	2.1%	-4.0	-17.7	8.4
CN1CCc2c(sc(/N=C/c3c[nH]c4ccccc34)c2C#N)C1	-4.5	-4.5%	.	.	3.6
CCCc1cc(=O)[nH]c(SCC(=O)NC(=O)c2ccccc2)n1	-3.8	-15.4%	-46.6	-1.3	-2.5
O=C(CCC(=O)c1cccs1)Nc1ccc(F)c(F)c1F	-4.5	-4.3%	-11.6	0.8	0.7
CN=C1SC(CC(=O)Nc2ccc(N3CCOCC3)cc2)C(=O)N1C (configuration not stated)	-6.6	-3.7%	-9.7	6.1	-2.4
COC(=O)c1sccc1S(=O)(=O)NC(C)c1cnn(-c2ccc(OC)cc2)c1C (configuration not stated)	?	.	.	.	3.3
CCOc1ccc(N(CC)C(=O)c2nn(-c3ccc(OC)cc3)c(=O)c3c2c2ccccc2n3C)cc1	4.0	2.1%	.	-2.8	1.2
CCN(CC(=O)Nc1ccc(NC(C)=O)cc1)C(=O)C(c1ccccc1)c1ccccc1	-5.0	-2.9%	-23.9	-6.3	3.2
CCO[C@@H]1OC(C(=O)NCc2ccccc2)=C[C@H](C2CC2)[C@H]1CCCO	9.2	-11.3%	.	-4.3	0.1
CCOC(=O)C1(Cc2cccc(OC)c2)CCN(CC=C(C)C)CC1	-4.4	-11.0%	.	-8.7	0.2
CC(C)(C)C1=C(C#N)C(c2ccc3c(c2)OCO3)C(C#N)=C(N)O1 (configuration not stated)	1.8	-6.5%	-4.3	-4.9	-1.9
Cn1cnnc1SCc1ccc(C(=O)N=Nc2c(O)n(C)c3ccccc23)cc1	-2.3	-5.8%	5.2	-13.7	0.9
CCn1c2ccccc2c2nnc(SCc3ccc(C(=O)OC)o3)nc21	-10.3	0.9%	-30.4	1.9	2.4
Following part:
SMILES	Mtb bLac sens	Mtb growth	YopH PTP inh	Arbovirus inh	RecA splice inh	others
O=C(/C=C/c1ccccc1)Nc1cccc(C(=O)O)c1	2.3	-5.2%	.	1.0	-0.1
Cc1cc(=O)oc2cc(OCC(=O)OCC(=O)Nc3c(C)n(C)n(-c4ccccc4)c3=O)ccc12	0.5	-9.4%	.	17.0	2.6
O=C(NC1CCCC1)C1CC(=O)N(c2ccc(F)cc2)C1 (configuration not stated)	-1.1	.	.	.	-1.2
O=C(CCc1nnc(C2(c3ccc(Cl)cc3)CCC2)o1)NC1CC1	-4.6	-15.8%	.	-2.7	-2.7
CC(NC(=O)c1cn(C)c2ccc(S(=O)(=O)N3CCCC3)cc2c1=O)c1ccc2c(c1)OCCO2 (configuration not stated)	?	-6.2%	-4.2	4.3	-2.3	Arbovirus inh repeat=-5.2
COc1cc(NC(=O)c2ccc(COCC(F)(F)F)o2)cc(OC)c1OC	2.5	7.2%	11.9	3.8	0.2
O=C(Nc1ccc(F)cc1)c1cc(-c2ccccc2)no1	-0.3	-4.3%	.	-2.8	0.4
Cc1cccc2cc(COC(=O)c3cccs3)c(=O)[nH]c12	-0.8	2.0%	-24.6	8.2	0.6
C=CCc1ccc(OCCn2cncn2)c(OC)c1	-2.9	.	.	.	-1.2
Cn1c(CNC(=O)CCNC(=O)c2ccccc2F)cc(=O)n(C)c1=O	7.2	.	.	.	0.9
Cc1c(S(=O)(=O)N2CCN(c3cccc(Cl)c3)CC2)c(=O)n(C)c(=O)n1C	-4.7	.	.	.	-2.8
CCCc1nnc(SCC(=O)Nc2ccc(OCC)cc2)n1N	28.0	10.1%	-6.3	1.7	2.0
COc1ncnc2c1cnn2-c1ccccc1	0.0	-7.9%	-21.6	-6.5	.
CCOc1ccc(-n2c(SCC(=O)Nc3ccc(Br)cc3)nc3n[nH]c(C)c3c2=N)cc1	-1.0	-0.4%	.	7.3	-1.7
Cc1cc(C(=O)CSc2nc(N)cc(=O)[nH]2)c(C)n1CCc1ccc(F)cc1	-11.0	-0.4%	-18.1	8.2	1.0
CCOC(=O)[C@@H](CCc1ccccc1)N[C@H](C)C(=O)N1[C@H](C(=O)O)C[C@@H]2CCC[C@@H]21	4.3	.	.	.	-1.9
Cc1nnc(NC2=NCCC2)o1	-8.5	-2.9%	-29.7	2.9	-0.7
Cc1cc(C)nc(NC(=O)c2ccc(COc3ccccc3Cl)cc2)c1	2.5	12.2%	.	-26.5	1.4
O=C(CCc1nnc(COc2ccccc2)o1)NCCc1cccs1	-4.0	3.1%	.	-1.6	2.2
COc1cc2c(C(=O)N3CCOCC3)c(CSc3ccccc3)n(C)c2cc1Br	10.0	4.0%	.	-0.5	12.9
Cc1ccc(C)c2c1cc(C)c1nnc(SCC(=O)NCc3ccc4c(c3)OCO4)n12	12.1	16.6%	-0.6	-6.5	3.7
CC1CC(NC(=O)c2cc3c(=O)n4ccccc4nc3n2C)CC(C)(C)C1 (configuration not stated)	3.4	.	.	.	-205.4
CS(=O)(=O)c1ccc(-c2nnc(NC(=O)c3ccc(S(=O)(=O)N4CCCC4)cc3)o2)cc1	-3.9	.	.	.	-0.1
CCOC(=O)c1ccc(NC(=S)N2CCN(Cc3ccccc3)CC2)cc1	2.0	?	-44.5	-1.6	-1.3
CSc1cccc(N2C(=O)C3CCCN3C2=S)c1 (configuration not stated)	-0.8	.	.	.	-1.3
C#CCOCCOCCOCCNc1nc(N2CCOCC2)nc(N2CCN(C(=O)[C@H]([C@@H](C)CC)n3cc([C@@H](N)Cc4ccc(O)cc4)nn3)CC2)n1	-6.1	-8.9%	.	-1.7	-1.9
O=C(Nc1ccccc1Cl)Oc1ccc2ccccc2c1	81.2	>100µM*	.	.	0.2
CSc1ncc(Cl)c(C(=O)Nc2ccc(S(=O)(=O)Nc3nccc(C)n3)cc2)n1	-4.3	.	.	.	-2.5

In the list so far, two contain a tert-butyl group:
SMILES	Mtb bLac sens	Mtb growth	YopH PTP inh	Arbovirus inh	RecA splice inh	others
CC(C)(C)OC(=O)CNC(=O)c1[nH]cnc1C(=O)N[C@@H](Cc1ccccc1)C(=O)OCc1ccccc1	5.8	.	.	.	4.1
CC(C)(C)C1=C(C#N)C(c2ccc3c(c2)OCO3)C(C#N)=C(N)O1 (configuration not stated)	1.8	-6.5%	-4.3	-4.9	-1.9
